Compound activity from PubChem.
GLA inh pH 4.5 – inhibitors of human alpha-galactosidase A at pH 4.5; P06280; purified enzyme, 4-MU-alpha-Gal fluorescence, pH 4.5; activity change, negative = inhibition, % at 105 µM; 230,000 tested, under 10 active; AID 1467; inconclusive = small, poorly fitted or top-dose-only inhibition, or a rising curve; inactive = flat fitted curve, though single readings scatter; no compound was filed as active;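 also: 0% = full activity with enzyme and -100% = basal without enzyme; dose as in the result columns while the protocol names 77 µM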
Target sequence (P06280 whole entry, looked up): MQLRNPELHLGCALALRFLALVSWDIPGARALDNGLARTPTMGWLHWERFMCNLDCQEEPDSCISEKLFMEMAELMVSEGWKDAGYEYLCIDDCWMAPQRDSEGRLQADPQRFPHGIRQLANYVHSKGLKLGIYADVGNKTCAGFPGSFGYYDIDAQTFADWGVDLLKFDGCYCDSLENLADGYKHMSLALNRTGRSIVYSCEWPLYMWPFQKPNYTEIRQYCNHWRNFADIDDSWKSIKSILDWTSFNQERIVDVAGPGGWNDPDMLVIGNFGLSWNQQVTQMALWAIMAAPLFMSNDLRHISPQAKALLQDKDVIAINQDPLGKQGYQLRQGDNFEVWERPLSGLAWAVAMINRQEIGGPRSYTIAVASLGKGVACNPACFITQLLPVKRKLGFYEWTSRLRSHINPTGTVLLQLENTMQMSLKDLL
miR-21 reporter – raises the signal of a miR-21 reporter. HeLa miR-21 FLuc reporter, luciferase, 48 h. 340,000 tested, under 10 active. AID 2288. Potency, µM (top dose mostly 38.3 µM), for inactives: at the top dose reporter change, positive = more light; active = well fitted rising curve with a large enough effect; inconclusive = small, poorly fitted or top-dose-only effect; inactive = no such curve, though single readings can be large or run the other way;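 also: % of control where 0% means no effect; miR-21 action dims this reporter so a rising signal means less miR-21 action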
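Using DMEM plus 10% FBS, HeLa miR-21-FLuc cells are incubated with test compounds (final up to about 40uM) for 48 hours; firefly luciferase signal is then imaged following reagent-mediated lysis.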
Rango dissoc inh – inhibitors of RanGTP-induced Rango-importin beta complex dissociation; O95149+P62826; Biochemical FRET Rango-importin beta, RanGTP-induced dissociation; Potency, µM (top dose mostly 46.1 µM), without a hit: at the highest dose activity change, negative = inhibition; hit rate 0.071% among 340,000; AID 540253; active means falling FRET ratio curve, often poorly fitted, with flat reads before Ran was added; inconclusive means other falling curves, or compound fluorescence or quenching; inactive means flat or rising ratio curve;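 also: potency is read from the fitted curve at half-maximal effect; % of control where 0% means no effect; nearly all actives have a fitted effect of over 45% in size; -100% = wells without RanGTP and RCC1; the record marks most hits as doubtful in a second field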
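Compounds sat 5 min at room temperature with 0.1 uM Rango biosensor plus 0.25 uM importin beta, then FRET pre-read. RanGTP-RCC1 (0.6 uM Ran, 2mM GTP, 0.2 uM RCC1) added for 45 min, and the CFP/YFP post-read measured blocked complex dissociation.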
Rango complex inh – Rango-importin beta binding inhibition. Rango CFP/YFP FRET sensor + importin beta, 45 min. Potency, µM (titrated, usually from 92.2 µM), inactives show at the top dose inhibition of complex formation. hit rate 0.031% among 340,000; active = rising FRET ratio curve, often small or poorly fitted; inconclusive = mostly compound fluorescence or quenching in the first reads; inactive = flat curves in all reads;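 also: potency is read from the fitted curve at half-maximal effect; 0% = DMSO wells and 100% = buffer wells lacking importin beta; nearly all actives have a fitted effect of over 15% in size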
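FRET biosensor (snurportin 1 IBB flanked by EYFP and cerulean), 50 nM, with compound 5 min, then 0.125 microM importin beta in PBS, 1 mM DTT, 0.02% Tween-20, 0.1% BSA. CFP/YFP ratio read after 45 min at room temperature; pre-read flags interference.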
Starred values were filed as active, the others as inactive; ? = inconclusive; · = no result given; & = joins results of further samples; [ ] = dose if it differs, or a comment.

SMILES	GLA inh pH 4.5	miR-21 reporter	Rango dissoc inh	Rango complex inh
COc1ccc(C(=O)C2CCCN(C(=O)c3ccc4cc[nH]c4c3)C2)c(C)c1 (stereo not given)	-2	-23%	-3%	-2.1%
COc1ccc(N2CCN(S(=O)(=O)c3cc(-c4cc(C)no4)ccc3C(C)C)CC2)cc1	·	16%	3%	-3.6%
CCOC(=O)c1sc(NC(=O)c2ccncc2)c(C#N)c1C	-1	-4%	34%	0.2%
O=C1N[C@@H](Cc2c[nH]c3ccccc23)COC(=O)[C@H](Cc2ccc(F)cc2)C/C=C\C[C@@H]1CC(=O)N(CCO)Cc1ccccc1	·	·	-8%	2.9%
CC(=O)Nc1ccc(S(=O)(=O)c2cc(O)ccc2O)cc1	·	-5%	4%	-0.4%
COc1ccc2c(COC(=O)CCS(=O)(=O)c3ccccc3)cc(=O)oc2c1	9	-2%	·	·
CCOc1ccccc1NC(=O)COC(=O)c1nc2nccc(C)n2n1	·	·	-11%	-2.6%
COc1ccc(/C=C/C(=O)OCC(=O)c2ccc[nH]2)cc1	·	·	0%	-2.8%
COc1ccc(C(=O)OCCCN(C)C)cc1OC	3	-3%	12%	-0.5%
Cc1ccc(S(=O)(=O)N2CCN(C(=O)c3ccc(COc4ccccc4)o3)CC2)cc1	·	·	1%	-0.8%
CC(C)CNC(=O)CN(C)S(=O)(=O)c1ccc(F)cc1	7	-10%	12%	-0.2%
Cc1ccc(C(=O)Nc2ccc3ncccc3c2)cc1	·	20%	17%	-2.3%

Compound profiles, as listed above. Screens in order: GLA inh pH 4.5	miR-21 reporter	Rango dissoc inh	Rango complex inh
`CC(=O)Nc1ccc(S(=O)(=O)c2cc(O)ccc2O)cc1` in the list: ·	-5%	4%	-0.4%
`Cc1ccc(S(=O)(=O)N2CCN(C(=O)c3ccc(COc4ccccc4)o3)CC2)cc1` in the list: ·	·	1%	-0.8%
`COc1ccc(C(=O)OCCCN(C)C)cc1OC` in the list: 3	-3%	12%	-0.5%
`COc1ccc(N2CCN(S(=O)(=O)c3cc(-c4cc(C)no4)ccc3C(C)C)CC2)cc1` in the list: ·	16%	3%	-3.6%

Next structures.
SMILES	GLA inh pH 4.5	miR-21 reporter	Rango dissoc inh	Rango complex inh
COc1cccc2c3c(c(=O)[nH]c12)CC(C)(C)O3	·	·	20%	2.3%
Cc1ccc(S(=O)(=O)CCC(=O)OCC(=O)c2cc(C)n(C)c2C)cc1	·	·	?	?
COc1ccc(/C=C(\NC(=O)c2ccc(C)cc2)C(=O)Nc2ccc(C(=O)O)cc2)cc1	·	-17%	0%	7.0%
O=C(COC(=O)Cn1[nH]c(=O)c2ccccc2c1=O)NNC(=O)c1ccc(Br)cc1	·	·	1%	0.8%
CCCC(C(=O)Nc1ccc2c(C)cc(=O)oc2c1)c1ccccc1 (stereo not given)	·	4%	2%	-1.9%
Cc1ccccc1C1CC(c2cccs2)=NN1S(C)(=O)=O (stereo not given)	-2	-9%	11%	-0.9%
Cc1cc(C)cc(NC(=O)COc2coc(CN3CCc4ccccc4C3)cc2=O)c1	·	·	7%	-1.4%
COC(=O)c1cccnc1-n1c(=O)c2cccnc2n(Cc2cccc([N+](=O)[O-])c2)c1=O	-2	-18%	13%	0.9%
CCC1(c2ccccc2)NC(=O)N(Cc2cccc([N+](=O)[O-])c2)C1=O (stereo not given)	-15	7%	-14%	-1.3%
COc1ccc(C(=O)NCc2ccc(-c3nc4ccccc4s3)cc2)cc1OC	9	-47%	-2%	5.8%
CSc1nc(Oc2cccc(C(F)(F)F)c2)cc(C(F)(F)F)n1	2	-3%	-12%	5.9%
CCOc1ccccc1NC(=O)CCc1c(C)nn(-c2ccc(N3CCCCC3)nn2)c1C	·	-3%&20%	-8%	3.1%

2 records drawn at random from those above:
SMILES	GLA inh pH 4.5	miR-21 reporter	Rango dissoc inh	Rango complex inh
COC(=O)c1cccnc1-n1c(=O)c2cccnc2n(Cc2cccc([N+](=O)[O-])c2)c1=O	-2	-18%	13%	0.9%
COc1ccc(C(=O)NCc2ccc(-c3nc4ccccc4s3)cc2)cc1OC	9	-47%	-2%	5.8%

Further compounds:
SMILES	GLA inh pH 4.5	miR-21 reporter	Rango dissoc inh	Rango complex inh
CCCOC(=O)CCCCC1SCC(NC(=O)OC)C1NC(=O)OC (stereo not given)	3	-2%	-4%	-2.4%
CCOC(=O)C1=C(C)N=C2c3ccccc3C(=O)C2C1c1ccccc1 (stereo not given)	-3	-5%	-1%	0.2%
CC(C)Oc1ccc(/C(O)=C2/C(=O)C(=O)N(CCCn3ccnc3)C2c2cccnc2)cc1 (stereo not given)	-1	-3%	-8%	4.8%
N#Cc1ccccc1OCC(=O)NCCNC(=O)COc1ccccc1C#N	·	·	6%	-0.1%
CN(C(=O)c1cccc(NC(=O)Cc2ccc(NC(=O)C3CCCN(C(=O)C4CCCC4)C3)cc2)c1)C1CCCC1 (stereo not given)	·	·	-6%	-7.5%
c1ccc2c(c1)ncn2-c1ccc(-c2ccnc3ncnn23)cc1	0	-8%	12%	-1.3%
Cc1ccc(C2=NN(C(=O)CCCC(=O)O)C(c3ccco3)C2)cc1 (stereo not given)	1	-22%	-2%	-0.8%
CC1CC(=O)NN=C1c1ccc(N(C)C)c([N+](=O)[O-])c1 (stereo not given)	-1	-31%	-9%	0.3%
NC(=N\N=Cc1ccco1)/C(N)=N/N=Cc1ccco1	·	·	5%	3.4%
Cc1cc(=O)[nH]c(SCc2ccc(Cl)cc2Cl)n1	·	-4%	9%	1.2%
Cc1cc(N2C(=O)CC(Cc3ccccc3)C2=O)no1 (stereo not given)	2	-1%	-13%	-2.1%
Cc1ccc(OCC(O)Cn2c(=N)n(CCN3CCCCC3)c3ccccc32)cc1 (stereo not given)	-4	14%	6%	0.8%
CC(NC(=O)C1CCCN(S(=O)(=O)c2ccc(-n3cnnn3)cc2)C1)c1ccc(F)cc1 (stereo not given)	·	3%	-1%	-1.9%
CCCCn1nc(-c2ccccc2)c2nc3ccccc3nc21	1	-1%	·	·
COc1ccc(Nc2nnc(-c3ccc(C)cc3)c3ccccc23)cc1C(=O)N1CCCCC1	0	9%	-13%	-3.0%
Fc1cccc(Cl)c1CNCCCSc1ncccn1	·	-8%	-11%	3.5%
CC(C)CN(CCCNC(=O)CN1C(=O)COc2ccc(S(=O)(=O)N3CCC(C)CC3)cc21)CC(C)C	·	-1%	-5%	-2.0%
Cc1ccc(OCCN2C(=O)OC(C)(C)C2(C)O)cc1 (stereo not given)	4	-4%	27%	-1.3%
O=C(C[n+]1cc(Br)cc(Br)c1)c1ccc(Cl)cc1	·	-2%	-13%	-1.9%
CN(C)C(=O)COC(=O)c1ccccc1Nc1ccc(SC(F)F)cc1	5	-10%	6%	3.7%
CCCNC(=O)c1noc2c1CCc1ccccc1-2	-4	-55%	-20%	-0.8%
COc1ccc(NC(=O)CCN=C2NS(=O)(=O)c3ccccc32)cc1S(=O)(=O)N(C)C	·	·	16%	-0.1%
Cc1onc(-c2ccccc2)c1C(=O)N/N=C(\N)COc1ccc(Cl)cc1	2	7%	26%	-0.6%
CCOc1ncccc1C(=O)OCC(=O)c1ccc(Cl)s1	4	-5%	-7%	3.7%
N#Cc1c(/N=C/c2cc3ccccc3s2)sc2c1CCC2	8	-34%	-7%	-3.8%
CC(=O)NC1=NN(C(C)=O)C(c2ccccn2)S1 (stereo not given)	4	1%	0%	-0.1%
O=C(Cn1ccc(NC(=O)OCc2ccccc2)nc1=O)NCCCc1ccccc1	·	·	-12%	3.4%
CCC(C(=O)NCc1ccccc1OC)c1ccccc1 (stereo not given)	3	-2%	1%	0.7%
CCCn1c(SCCc2ccccc2)nc2c1c(=O)[nH]c(=O)n2C	2	-23%	-2%	-5.8%
O=C(CNCCC1=CCCCC1)Nc1ccccc1N1CCCCC1	1	8%	0%	?
Cc1ccc(C(=O)N2CCN(c3ccc(NC(=O)CSc4ccc(Cl)cc4)cc3)CC2)cc1	1	-1%	0%	0.3%
COc1ccc(C(=O)NNC(=O)C2(C)CC2(Br)Br)cc1 (stereo not given)	·	-37%	4%	-2.0%
COc1ccc(/C=N/NC(=S)NCCc2ccccc2)cc1	·	0%	-8%	-4.2%
CC1(C)C(=O)Nc2ccccc2N1C(=O)COC(=O)c1cccnc1	·	·	-7%	2.2%
COc1ccc(/C=N/NC(=O)CNC(=O)c2ccc(S(=O)(=O)N3CCCC3)cc2)c(OC)c1	-1	1%	5%	-2.3%
Cc1cc(C)n(C(=O)c2ccc(S(=O)(=O)N3CCCC3)cc2)n1	3	0%	-1%	1.3%
COc1nnc(-c2ccc(N3CCOCC3)c(NC(=O)C3CCCCC3)c2)c2ccccc12	1	-7%	-9%	0.9%
COc1cccc(CNc2ncc(C(=O)Nc3cc(OC)c(OC)c(OC)c3)c(C)n2)c1	·	16%	-8%	-1.3%
Cc1ccc(-n2c3nc(=O)[nH]c(=O)c-3cc3cc([N+](=O)[O-])ccc32)cc1C	-11	-9%	-16%	?
O=C1c2ccccc2C(=O)c2c1ccc1c(=O)n(C3CCCCC3)[nH]c21	-12	-10%	4%	2.3%
Cc1nnc(N2CCC(C(=O)N3CCCCCC3)CC2)c2nn(-c3ccc(Cl)cc3)c(C)c12	·	-1%	-14%	1.4%
O=C(Cn1cc2c(n1)CCCCC2)N1CCc2ccccc21	-1	-17%	1%	1.7%
CCC(=O)Nc1c2c(nn1-c1ccc(F)cc1)CS(=O)(=O)C2	·	-1%	?	?
O=S1(=O)CC(O)C(NCCO)C1 (stereo not given)	2	-4%	14%	-0.7%
COc1ccc(C(=O)COC(=O)Cn2c(C)csc2=O)c(OC)c1	·	·	19%	-0.5%
COC(=O)C1=C(C)N=C2SC(C)C(=O)N2C1/C=C/c1ccccc1OC (stereo not given)	0	-1%	-14%	0.6%
COC(=O)c1ccc(NC(=O)Nc2ccccc2C)cc1	-5	-27%	-7%	2.9%
COc1ccc(CN2C(=O)c3cccnc3C2=O)cc1S(=O)(=O)N1CC(C)CC(C)C1 (stereo not given)	·	-1%	-6%	0.7%
CC(=O)COc1ccc2cc(-c3ccccc3)c(=O)oc2c1	·	-26%	?	?
CSc1cccc(NC(=O)CN(Cc2ccc(Cl)cc2)S(C)(=O)=O)c1	-1	5%	-1%	0.0%
Cc1ccc(C(=O)Oc2oc(-c3ccco3)nc2C=Nc2ccc(Cl)cc2)cc1	2	-41%	3%	?
Cc1cc(C)cc(OCCNC(=O)c2ccc(Br)cc2)c1	·	-2%	-4%	-3.9%
COc1ccc(CC(=O)N2CCc3ccccc32)cc1	-13	-55%	-3%	-0.8%
COc1ccc(CCn2c(C)cc(C(=O)CN3C(=O)C(=O)N(C4CCCC4)C3=O)c2C)cc1OC	·	·	-10%	-1.1%
O=C(NC(Cc1c[nH]c2ccccc12)C(=O)O)c1ccc(F)cc1 (stereo not given)	-9[21.1 µM]	2%	0%	-4.5%
CCn1c(C(C)C)n[nH]c1=S	2	4%	0%	0.8%
O=C(c1ccc(S(=O)(=O)N2CCCCCC2)cc1)N1CCC(CN2C(=O)c3cccc4cccc(c34)C2=O)CC1	-1	-7%	-10%	1.3%
O=S1(=O)CCOC[C@H](CC2CCCCC2)N1Cc1cccc(C(F)(F)F)c1	·	9%	21%	-3.6%
Cc1cnc(NC2=NCCC2)s1	-2	-2%	-5%	2.8%
CC(=Nc1ccccc1)C1=C(O)CSC1=O	-6	-16%	?	?
The results go on.
SMILES	GLA inh pH 4.5	miR-21 reporter	Rango dissoc inh	Rango complex inh
CCN1CCN(Cc2nc3c(c(=O)n(C)c(=O)n3C)n2Cc2cccc3ccccc23)CC1	2	-7%	0%	-0.4%
Cc1ccc(S(=O)(=O)N2C3C=CC(C3)C2C(=O)O)cc1 (stereo not given)	-3	-4%	?	-3.5%
CCOc1cccc(/C=C/C(=O)O)c1	-3[21.1 µM]	0%	-8%	-1.6%
CN(C(=O)c1cccc(NC(=O)Cc2cccc(NC(=O)C3CCCN(C(=O)C4CCC4)C3)c2)c1)C1CC1 (stereo not given)	·	·	-11%	1.4%
O=C1c2ccccc2NC(c2cccc([N+](=O)[O-])c2)N1O (stereo not given)	·	13%	-1%	3.0%
CCn1c(SCc2nc(-c3ccccc3)no2)nc2ccccc21	-1	-16%	3%	0.9%

This is a subset, so the mix of outcomes need not match the whole.
